Screens: PubChem, National Center for Advancing Translational Sciences (NCATS)
NPR1 antag = human Npr1 receptor antagonism | P16066 | HEK293 hNpr1 GloSensor cGMP, ANP-stimulated luminescence | Potency, µM (top dose mostly 46.3 µM), for inactives: at the highest dose activity change, negative = inhibition, actives largely listed as inhibitors | hit rate 1.6% among 76,000 | AID 1347048; active = well fitted inhibition curve with a large enough effect; inconclusive = small, poorly fitted or top-dose-only effect; inactive = no such curve, though single readings can be large or run the other way;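 also: nearly all actives have a fitted effect of over 60% in size; nearly all hits also lower the signal before the agonist is added; a reference antagonist and vehicle were the controls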
Target sequence (P16066 whole entry, looked up): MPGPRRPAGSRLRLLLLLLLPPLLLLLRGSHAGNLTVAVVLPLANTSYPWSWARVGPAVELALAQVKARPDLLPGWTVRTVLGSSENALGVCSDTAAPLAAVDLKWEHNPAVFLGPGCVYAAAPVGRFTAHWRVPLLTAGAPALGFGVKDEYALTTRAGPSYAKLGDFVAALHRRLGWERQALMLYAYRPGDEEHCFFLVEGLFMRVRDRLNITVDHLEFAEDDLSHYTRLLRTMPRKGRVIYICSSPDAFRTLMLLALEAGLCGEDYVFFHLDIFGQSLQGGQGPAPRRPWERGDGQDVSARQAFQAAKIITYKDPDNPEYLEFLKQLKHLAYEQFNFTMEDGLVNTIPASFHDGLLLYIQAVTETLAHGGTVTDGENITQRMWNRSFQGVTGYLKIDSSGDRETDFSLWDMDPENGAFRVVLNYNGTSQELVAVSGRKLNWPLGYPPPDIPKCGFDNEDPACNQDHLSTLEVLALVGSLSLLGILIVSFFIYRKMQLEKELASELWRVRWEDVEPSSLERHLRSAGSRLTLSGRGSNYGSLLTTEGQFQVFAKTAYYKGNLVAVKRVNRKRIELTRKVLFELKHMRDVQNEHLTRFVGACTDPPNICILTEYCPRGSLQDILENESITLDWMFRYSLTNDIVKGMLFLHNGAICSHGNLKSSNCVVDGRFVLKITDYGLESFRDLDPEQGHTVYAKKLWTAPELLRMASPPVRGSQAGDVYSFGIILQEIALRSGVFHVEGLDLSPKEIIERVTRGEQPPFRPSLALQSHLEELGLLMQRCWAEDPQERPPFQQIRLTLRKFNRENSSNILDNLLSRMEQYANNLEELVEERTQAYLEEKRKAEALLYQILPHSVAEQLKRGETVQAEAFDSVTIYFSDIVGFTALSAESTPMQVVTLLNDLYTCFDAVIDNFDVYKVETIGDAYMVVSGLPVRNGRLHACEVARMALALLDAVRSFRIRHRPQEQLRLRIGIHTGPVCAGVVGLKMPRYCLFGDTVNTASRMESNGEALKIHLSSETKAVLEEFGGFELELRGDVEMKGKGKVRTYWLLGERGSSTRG
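Compound pre-incubated 30 min at room temperature on GloSensor-loaded HEK293 cells stably carrying hNpr1 and the pGS-40F cGMP biosensor. Stimulation uses hNppA at 0.1 nM final; luminescence is taken at baseline and 20 min post-agonist.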
Numbers without * were called inactive; ? = inconclusive; [ ] = another dose, or the depositor's remark. % is scaled to controls: 0 for no effect and ±100 for the full control effect; potency is read from the fitted curve at half-maximal effect. Some of the compounds tested, so the mix of outcomes need not match the whole.

SMILES | NPR1 antag
Cc1ccc(C2NC(=O)N(CC(=O)N3CCN(c4ccccc4)CC3)C3=C2C(=O)OC3)cc1 (stereo not drawn) | -1.9%
O=C(CCCc1c[nH]c2ccccc12)N1CCN2CCS(=O)(=O)N(C3CC3)C(=O)C2C1 (stereo not drawn) | -1.9%
CNC(=O)[C@@H](Cc1ccccc1)N1CCC[C@H]1C(=O)NCCN(C)C | 6.1%[70.6 µM]
COCC(=O)N[C@@H]1CN(Cc2ccccc2F)C[C@H]1CO | -5.9%
Cn1c2c(c3ccccc31)CN(C(=O)Nc1ccccc1)CC2 | -16.7%
N#Cc1ccc(CNC(=O)[C@@H]2Cc3nc[nH]c3CN2Cc2cc3ccccc3o2)cc1 | 2.2%[70.6 µM]
CN(C)C[C@@H]1CN(C)C[C@H]1NS(=O)(=O)c1cccc(C(F)(F)F)c1 | 6.0%
Cc1nc(C2CC(O)C2)cc(N2CCN(C(=O)c3cccs3)CC2)n1 (stereo not drawn) | 3.5%
O=C(CCCc1ccccc1)N1CC(c2noc(COc3ccccc3)n2)C1 | -16.9%
Cc1ccc(C(=O)NC[C@H]2O[C@@H](CC(=O)Nc3ccccc3)[C@H](O)[C@@H]2O)cc1 | 3.1%[70.6 µM]
Cn1ccnc1CN1C[C@@H]2C[C@H]1C(=O)N(CC1CC1)c1ccccc1O2 | -0.8%[70.6 µM]
CCC[C@H]1CN(C(=O)c2nc(-c3ccccc3)[nH]c2C)C[C@@H]1N | -7.0%
COCCNC(=O)[C@@H]1C[C@H](Oc2ccccc2)CN1C(=O)c1cc2ccccc2[nH]1 | 0.1%
O=C(N[C@@H]1CN(C2CCSCC2)C[C@H]1CO)c1cccnc1 | 3.6%
COc1cc(NC(=O)Cn2cccc2-c2nc(-c3ccc(F)cc3)no2)cc(OC)c1 | 3.1%
O=C1[C@H]2CN(Cc3cc(F)ccc3F)C[C@H]2C(=O)N1Cc1ccc2c(c1)OCO2 | -7.8%
O=C(NC1CC(=O)N(Cc2ccccc2C(F)(F)F)C1)c1ccc[n+]([O-])c1 (stereo not drawn) | 5.1%
C=CCCC(CN1CCOCC1)Oc1cc(C)nc(-c2ccccc2)n1 (stereo not drawn) | -17.2%
O=C(c1cccs1)N1CC[C@H]2COC(=O)N2c2cc(F)ccc2C1 | 5.9%[70.6 µM]
CCCN(CC1CCOC1)S(=O)(=O)c1cc(Cl)ccc1OC (stereo not drawn) | 1.3%
COc1ccc(C(=O)N2CCC(Cc3nc(C4CC4)n[nH]3)C2)cc1 (stereo not drawn) | -1.2%
OCC1CN(c2ncccn2)CC12CCN(Cc1c[nH]c3ccccc13)CC2 (stereo not drawn) | 0.7%
CN(Cc1ccon1)C(=O)c1coc(COc2ccc(F)cc2Cl)n1 | 15.2%
OC1(CN2CCC(c3nc(-c4ccccc4)no3)CC2)CNCCOC1 (stereo not drawn) | -1.4%
COc1ccc(C(=O)N2CCC(n3nccc3NC(=O)c3cccc(F)c3)CC2)cc1C | -2.2%
Cc1ccc(-c2ccc3nnc(CNC(=O)c4ccccc4)n3n2)cc1C | -16.5%
CCn1ccc(C(=O)N2CCC3(CC2)CC(N(Cc2ccccc2)C2CC2)CCO3)n1 (stereo not drawn) | 0.7%
COc1cccc(CN2C(=O)C3(CCOCC3)CC2c2nnnn2C(C)(C)C)c1OC (stereo not drawn) | -11.2%
COC[C@H]1C[C@@H](NC(=O)Nc2ccc3c(c2)OCCO3)[C@H](O)[C@@H]1O | 1.7%[70.6 µM]
Cc1ccc(S(=O)(=O)N2CCN(C3CCN(CCC(C)C)C3=O)CC2)cc1F (stereo not drawn) | 4.2%
COCCN1CC(C(=O)N(C)Cc2cc(Cl)ccc2OC)CCC1=O (stereo not drawn) | 4.4%
O=C(Nc1ccc(C(F)(F)F)cc1)N[C@H]1[C@H](O)[C@H](O)C[C@@H]1c1ccccc1 | -13.4%[70.6 µM]
CN1CCN(C(=O)c2cncc(N[C@H]3C[C@@H]4OCC[C@H]34)n2)CC1 | -9.1%
O=C(NC1CCCN(c2cc(-c3ccc(F)cc3)[nH]n2)C1)c1ccccc1Br (stereo not drawn) | -18.1%
O=C(c1cc(F)cc(F)c1)N1CCN(C2CCN(Cc3cccnc3)C2=O)CC1 (stereo not drawn) | -4.2%
CC(=O)Nc1cccc(-c2ccc3c(n2)CN(Cc2ccccc2C)C(=O)CO3)c1 | 0.2%[70.6 µM]
COc1ccc2c(c1)nc1n2[C@@H](CNC(=O)c2ccncc2)COC1 | 5.4%[70.6 µM]
COc1cccc(-c2noc(CC3CCN(C(=O)c4ccc(C)cc4C)CC3)n2)c1 | 11.2µM*
Cn1ccc2c(NC(=O)C[C@H]3NC(=O)c4ccccc4NC3=O)cccc21 | -9.7%
CC(C)c1nccn1CCCNC(=O)c1ccc(N2CCCCCC2)nc1 | -11.3%
CC(C)NC(=O)N[C@H]1C[C@@H](Cc2cc(CN(C)c3ccccc3)on2)C1(C)C | -24.3%[70.6 µM]
COc1ccccc1NC(=O)N1CCC2(CCC(=O)N(CC3CC3)CC2)CC1 | 4.8%
COc1ccc(CN2CCC3(CC2)CC(O)CCO3)cc1OC (stereo not drawn) | -4.6%
Cc1ccc(C(=O)N2CCCN(c3cc(-c4ccc(C)c(C)c4)[nH]n3)CC2)cc1C | -11.4%
CNC(=O)CCC1CCCN(S(=O)(=O)c2cccc(F)c2)C1 (stereo not drawn) | 1.2%
COc1ccc(CNC(=O)[C@H]2O[C@H](CCN3CCN(c4ccccc4)CC3)CC[C@@H]2O)cc1 | 2.1%
O=[S+]1([O-])NC2(CCN(Cc3ccccc3)CC2)CNc2ccccc21 | 0.0%
COc1cccc(CNC(=O)CN2C(=O)NC3(CCC(C)CC3)C2=O)c1OC (stereo not drawn) | 0.0%
CCOCC(=O)N1CCC(N2C(=O)C3(CCCC3)C2c2ccccc2)CC1 (stereo not drawn) | 9.9%
Cc1cn2nc(C(=O)NCc3ccc(F)cc3)cc2c(=O)[nH]1 | -17.3%
Cc1ccccc1NC(=O)N1CC(C(=O)N(C)C)C2(CCOCC2)C1 (stereo not drawn) | 0.2%
O=C(NCc1cccnc1)C1CN(S(=O)(=O)c2cccnc2)CC12CCCCC2 (stereo not drawn) | -3.0%
CCOc1ccc(C(=O)N2CCN(c3cc(-c4ccc(Cl)cc4)[nH]n3)CC2)cc1 | 12.6µM*
CC(=O)N1CCN(C(=O)C[C@@H]2C[C@@H](C(C)C)[C@H](CNC(=O)C3CC3)C=C2C)CC1 | 1.4%[70.6 µM]
O=C(c1ccc(F)cc1Cl)N1CCC(n2cc(-c3nc(-c4ccccc4)no3)nn2)C1 (stereo not drawn) | 3.98µM*
O[C@@H]1CCN(Cc2nc(C3(O)CCN(CC4CCCCC4)CC3)cs2)C1 | 1.0%[70.6 µM]
COc1cc(Cl)ccc1-c1nc(C2CC(=O)N(C3CCCCC3)C2)no1 (stereo not drawn) | -9.3%
COCCc1nc(CNC(=O)c2ccc3nc(C4CCCCC4)oc3c2)no1 | 3.6%
Cc1ccc(C(=O)N[C@@H]2CN(S(C)(=O)=O)C[C@H]2CN(C)C)cc1C | 5.4%
C[C@@H](NS(=O)(=O)c1ccc(Cl)cc1)c1onc(-c2ccc(F)cc2)c1C(=O)O | 4.8%[70.6 µM]

Next structures.
SMILES | NPR1 antag
O=C1Nc2ccccc2OCC12CCN(Cc1ccc(F)cc1)CC2 | -21.2%
CS(=O)(=O)N1CCCN(C(=O)CCc2ccccc2)c2ccccc21 | -0.3%
CCCn1c(C)cnc1CC1CCCN(C(=O)c2ccc(OC)cc2)C1 (stereo not drawn) | -1.4%
CN1C(=O)C(CC(=O)N2CCNCC2)(Cc2ccccc2)c2ccccc21 (stereo not drawn) | 5.2%
COc1ccc(-c2nc(CC3CCN(C(=O)c4n[nH]c(=O)c5ccccc45)C3)no2)cc1 (stereo not drawn) | 10µM*
O=C1[C@H]2CN(Cc3ccccc3Br)C[C@H]2C(=O)N1Cc1ccc2c(c1)OCO2 | -13.9%
COCC(=O)N[C@H]1C[C@@H](CO)N(Cc2sccc2C)C1 | -1.4%
CNC(=O)[C@@H]1C[C@H](n2cc(CNC(=O)Nc3ccc(Cl)cc3)nn2)CN1 | 6.5%
COc1ccc(C(=O)N2CCCC(O)(CN3CCCC3)C2)cc1Cl (stereo not drawn) | -1.5%
COc1ccc(C(=O)N2CCC23Cc2ccccc2NC3=O)cc1 (stereo not drawn) | 0.1%[70.6 µM]
CCCn1nc(C)cc1CN(C)C(=O)Cn1nc2n(c1=O)CCC(N)CC2 (stereo not drawn) | -0.3%
Cc1cnc(CN(C)C(=O)C2CCCN(C3CCN(Cc4ccncc4)CC3)C2)[nH]1 (stereo not drawn) | 2.5%
COc1ccc(NC(=O)N(C)CC2CCOCC2)cc1F | -3.0%
C#CCN(C)C(=O)[C@@H](C)C1CC[C@@]2(C)Cc3sc(NC(=O)C4CC4)nc3[C@@H](C)[C@@H]2[C@H]1O (stereo partly drawn) | -8.8%[70.6 µM]
CC(C)C[C@@H]1N[C@H](C(=O)NCCN(C)C)Cc2cn(Cc3ccccn3)c3cccc1c23 | 0.4%[70.6 µM]

Entries from the list above with a CF3 group:
SMILES | NPR1 antag
CN(C)C[C@@H]1CN(C)C[C@H]1NS(=O)(=O)c1cccc(C(F)(F)F)c1 | 6.0%
O=C(NC1CC(=O)N(Cc2ccccc2C(F)(F)F)C1)c1ccc[n+]([O-])c1 (stereo not drawn) | 5.1%
O=C(Nc1ccc(C(F)(F)F)cc1)N[C@H]1[C@H](O)[C@H](O)C[C@@H]1c1ccccc1 | -13.4%[70.6 µM]

Going on with the list:
SMILES | NPR1 antag
COCCN1C(=O)[C@@H]2C[C@@H](CN2C)Oc2ccccc21 | -1.9%[70.6 µM]
O=C(NC1CCCCCC1)C1CCN(c2cc(C(F)(F)F)ncn2)CC1 | ?
Cc1cnc(-c2ccccc2)n1C1CCCN(C(=O)c2cccn2C)C1 (stereo not drawn) | 4.5%
CC(C)[C@@H]1CN(C(=O)CCn2ccc(=O)[nH]c2=O)C[C@H]1NC(=O)N(C)C | 1.3%
O=C(Nc1ccc2c(c1)OCCO2)N1CCC(Cc2nc(-c3ccncc3)n[nH]2)C1 (stereo not drawn) | -1.9%
COc1ccc(F)cc1C(=O)N1CC[C@@H]2[C@@H](CCC(=O)N2CCN)C1 | -0.8%
COc1ccc(C[C@H](NC(=O)C2=C[C@@H](NS(=O)(=O)c3cccs3)[C@@H](O)[C@H](O)C2)C(N)=O)cc1 | 3.6%
O=C1NCCC[C@@H]1NC(=O)[C@@H]1CN(C(=O)c2cccs2)CCN1C(=O)c1ccccc1 | 0.5%
Cc1[nH]c(-c2ccccc2)nc1C(=O)N1CCn2nc(CCC(=O)O)cc2C1 | 1.2%
COc1ccc(CCN2CC(C(=O)N3CCC(CO)CC3)CCC2=O)cc1 (stereo not drawn) | -0.5%
CCN(Cc1c(C)nn(CC)c1C)C(=O)Cn1nc2n(c1=O)CCC(N)CC2 (stereo not drawn) | 1.8%
COc1cccc(CC(=O)N2Cc3ccccc3OC3(CCN(C)CC3)C2)c1 | -4.1%
CN(C)C[C@H]1O[C@@H](CO)[C@@H](O)[C@H]1N(C)CCc1ccccn1 | 5.4%[70.6 µM]
COc1cccc(NC(=O)N[C@H]2CCN(C(=O)C=C(C)C)[C@@H]2C(=O)N(C)CC(N)=O)c1 | -1.8%[70.6 µM]
CC(NC(=O)C1CN(c2ccc(Cl)cc2)C(=O)N1)c1ccc(F)cc1 (stereo not drawn) | -1.3%

6 entries from above, with values ahead of the structure.
NPR1 antag | SMILES
3.6% | COc1ccc(C[C@H](NC(=O)C2=C[C@@H](NS(=O)(=O)c3cccs3)[C@@H](O)[C@H](O)C2)C(N)=O)cc1
0.5% | O=C1NCCC[C@@H]1NC(=O)[C@@H]1CN(C(=O)c2cccs2)CCN1C(=O)c1ccccc1
1.2% | Cc1[nH]c(-c2ccccc2)nc1C(=O)N1CCn2nc(CCC(=O)O)cc2C1
-0.5% | COc1ccc(CCN2CC(C(=O)N3CCC(CO)CC3)CCC2=O)cc1 (stereo not drawn)
1.8% | CCN(Cc1c(C)nn(CC)c1C)C(=O)Cn1nc2n(c1=O)CCC(N)CC2 (stereo not drawn)
-4.1% | COc1cccc(CC(=O)N2Cc3ccccc3OC3(CCN(C)CC3)C2)c1

Continuation:
SMILES | NPR1 antag
COCC(=O)N(C1CCOCC1)C1CCN(C(=O)c2ccc(OC)c(F)c2)CC1 | 6.6%
CN1CCC(CN2CCC3(CC2)OCCN(c2ccc(F)cc2)C3=O)CC1 | 6.0%[70.6 µM]
CC(C)NC(=O)CCC[C@@H]1[C@H]2CCCN3CCC[C@@H](CN1Cc1ccccc1)[C@@H]23 | 1.8%
COc1ccc(C(=O)N2C[C@@H]3OCC(=O)N(CC4CC4)[C@@H]3C2)cc1 | -1.6%[70.6 µM]
CO[C@H]1C(=O)N(C(C)C)[C@H]1C1CCN(C(=O)c2ccc(C)nc2)CC1 | 6.1%
CN(C)C[C@@H]1CN(S(C)(=O)=O)C[C@H]1NC(=O)c1ccc(F)cc1F | 6.7%
O=[S+]([O-])(c1ccccc1)N1CCc2nc(C3CC3)nc(-c3ccc(Cl)cc3)c2CC1 | -2.5%
Cc1c(F)cccc1NC(=O)N(C)CC1CCOCC1 | 4.9%
O=c1c2nc(OCc3ccccc3)ccc2ncn1Cc1ccccn1 | 1.0%[70.6 µM]
Cn1cc([C@@H](NC(=O)C2CCN(Cc3ccco3)CC2)C2CC(O)C2)cn1 (stereo partly drawn) | 2.3%
NS(=O)(=O)c1ccc(CNC(=O)Cn2nc3c(cc2=O)CCCCC3)cc1 | 2.8%
CC(C)Oc1ccc(CNC(=O)c2nnn3cc(-c4ccccc4)[nH]c(=O)c23)cc1 | -12.6%
COc1cccc(NC(=O)c2cc3c(n2C)CCN(Cc2ccc(F)cc2)C3)c1 | 2.7%
COc1cccc(C(=O)N2CCC(Oc3ncccc3C(=O)N3CCCCC3)C2)c1OC (stereo not drawn) | 7.4%
Cc1ccsc1C(=O)N1CC(C(=O)NC2CCCCC2)C2(CCOCC2)C1 (stereo not drawn) | -0.5%
